# Bioassay records (PubChem)
# H5N1 antiviral – antiviral screen in MDCK cells, H5N1 avian flu. AID 740. hit rate 0.07% among 96,000. inhibition, % at 50 µM. cytopathic effect, luminescence, 72 h; hits give high values; no value below 0 was filed and about half of the inactive calls have no number; reference of the scale not given here; in the data active = inhibition above about 25%
# The depositor's hits bear a star; i = inactive. The list is partial (hit frequency here may not be typical).
no.	canonical_smiles	H5N1 antiviral
1	Cc1ccc2nc(-c3ccncc3)cc(C(=O)N3CCC4(CC3)OCCO4)c2c1	i
2	Cc1nc(SCc2cccc(F)c2)[nH]c(=O)c1C#N	i
3	CC1CC(C)CN(CC(=O)N2CCCc3c2c(=O)oc2ccc(OCc4ccccc4)cc32)C1 (stereo unspecified)	0.9
4	O=c1c2ccccc2nnn1CSc1ccc2c(c1)OCCO2	i
5	CCC(CC)C(=O)Nc1cc(C)c2c(=O)oc3ccccc3c2n1	3.4
6	Cc1ccc(S(=O)(=O)NCCOC(=O)Nc2sc(=S)n(C)c2C)cc1	0.5
7	Cc1ccc(C(CC(=O)c2ccco2)SCCO)cc1 (stereo unspecified)	0.6
8	COC(=O)c1cc(COc2ccc3oc(C)c(C(=O)OC(C)C)c3c2)c(C)o1	i
9	CNC(=O)COC(=O)c1cc(F)c(F)cc1Cl	0.3
10	Oc1ccc(/C=N/NC2=NCCCCC2)c(O)c1	i
11	COc1ccc(-c2nn(C)c(=O)c3ccccc23)cc1CNS(C)(=O)=O	2.2
12	CN(C)/C=N/c1sccc1C(N)=O	i
13	Cc1cccc(C(=O)O/N=C/c2c(N3CCOCC3)n(C)c3ccccc23)c1	4.5
14	COCCN1CCc2c(C)nc3c(-c4ccc(OC)c(OC)c4)cnn3c21	i
15	COc1ccc(CNC(=O)Cc2nn(C)c(=O)c3ccccc23)cc1	i

# Remaining list, next part.
no.	canonical_smiles	H5N1 antiviral
16	COc1cc(OC)cc(C(=O)N2c3ccc(F)cc3CCC2C)c1 (stereo unspecified)	0.5
17	O=c1cc(CSc2ccccn2)nc(N2CCN(c3ccccc3)CC2)[nH]1	1.4
18	COCCNC(=O)C1c2ccccc2C(=O)N(CCOC)C1c1ccc(F)cc1 (stereo unspecified)	i
19	CCCOc1ccc2c(=O)c(N3C(=O)c4ccccc4C3=O)c(C)oc2c1	i
20	COc1cc(Br)c(CC(=O)O)cc1OC	i
21	COc1ccc(CN2C(=O)c3cccnc3C2Nc2ccc(OC)c(Cl)c2)cc1 (stereo unspecified)	0.8
22	COC(=O)C1=C(C)N(C)C(=O)NC1c1ccc(C)cc1 (stereo unspecified)	0.9
23	Cc1ccc(C)c(NC(=O)CSc2nnc(-c3ccco3)o2)c1	i
24	CNC(=O)CN1C(=O)c2cccc3cccc1c23	i
25	O=C(CCSc1nnc2scc(-c3ccccc3)n12)NCc1ccc2c(c1)OCO2	0.1
26	COC(=O)[C@H](Cc1ccccc1)NC(=O)N1CCN(Cc2ccccc2)CC1	i
27	COc1cc(OC)c(OC)cc1CN1CCc2ccccc2C1	0.2
28	CCC(=O)Nc1ccc(C(=O)Nc2ccc3c(c2)OCO3)cc1	1.2
29	Cc1oc(-c2ccc(Cl)cc2)nc1CN1CCC(C(=O)NCc2ccco2)CC1	i
30	O=C(COc1ccccc1Cl)Nc1ccc(Cl)cn1	i

# More results:
no.	canonical_smiles	H5N1 antiviral
31	COc1ccc(-n2c(O)c(C=NCCCn3ccnc3)c(=O)[nH]c2=O)cc1	i
32	CCOC(=O)N1CCN(C(=O)CN(c2ccc(OCC)cc2)S(C)(=O)=O)CC1	0.7
33	CC(C)Nc1nc(NC(C)C)nc(C(=O)OCCO)n1	1.4
34	Cc1ccccc1OCC(O)Cn1c(=N)n(CCN2CCOCC2)c2ccccc21 (stereo unspecified)	i
35	CCOC(=O)N1CCC(Nc2nc3ccccc3n3nnnc23)CC1	1.0
36	CC(Oc1ccccc1)c1ccnn1S(=O)(=O)c1ccccc1 (stereo unspecified)	1.8
37	CC(C)NC(=O)C1CC(=O)N(C(C)c2ccccc2)C1 (stereo unspecified)	i
38	COC(=O)C1C(=O)C2=C(CC1C)NC(C)=C(C(=O)OC1CCCCC1)C2c1ccc(N(C)C)cc1 (stereo unspecified)	i
39	COc1ccccc1C(=O)Nc1ccccc1SC	4.8
40	CC1(C)CC(=O)c2c(Cc3ccccc3)n[nH]c2C1	0.5
41	Cc1cc(NC(=O)c2cccc(F)c2)no1	i
42	COc1ccc(/C(O)=C2/C(=O)C(=O)N(CCN3CCOCC3)C2c2ccccn2)cc1 (stereo unspecified)	0.5
43	COc1ccc2nc(NC(=O)CN3CCOCC3)sc2c1	i
44	CC1CCN(c2ncnc3nc[nH]c23)CC1	0.8
45	Cc1cccc(NC(=O)C2CCCN2C(=O)OCC(C)C)c1 (stereo unspecified)	i

# Three entries already listed, ordered by molar mass, falling:
no.	canonical_smiles	H5N1 antiviral
21	COc1ccc(CN2C(=O)c3cccnc3C2Nc2ccc(OC)c(Cl)c2)cc1 (stereo unspecified)	0.8
13	Cc1cccc(C(=O)O/N=C/c2c(N3CCOCC3)n(C)c3ccccc23)c1	4.5
39	COc1ccccc1C(=O)Nc1ccccc1SC	4.8

# Continuation:
no.	canonical_smiles	H5N1 antiviral
46	Cc1c(C(=O)N2CCCCCC2)oc2ccccc12	0.6
47	CC(CCc1ccccc1)NC(=O)C1CCN(S(=O)(=O)N2CCCCC2)CC1 (stereo unspecified)	1.8
48	O=C1CN(C(=O)c2ccccc2)c2ccccc2N1	i
49	CCOC(=O)N1CCC(Nc2ncnc3c2cnn3-c2ccc(Cl)cc2)CC1	i
50	COCCOC(=O)c1sc(=S)n(CCOC)c1N	0.1
51	Cc1nn2c(C)c(C(=O)Nc3ccccc3)cnc2c1C#N	0.7
52	CCOC(=O)CN1NC2(CCCCC2)NC1=S	0.1
53	COc1ccccc1N(CC(=O)NCc1ccccc1)S(C)(=O)=O	i
54	COc1cccc2c1OC[C@@H](CO)[C@H]2N(C)C(=O)Nc1ccc(Cl)cc1Cl	1.3
55	COc1cc(C(=O)N2CCN(S(=O)(=O)c3ccc(C)cc3)CC2)ccc1OCc1c(C)noc1C	1.3
56	N#Cc1c(NC2CCCCC2)nc(-c2ccco2)c2c1CCCC2	0.6
57	CC(NS(=O)(=O)c1ccccc1)C(c1cccs1)N1CCN(c2ccccc2)CC1 (stereo unspecified)	1.4
58	N#CCSc1nnc(-c2ccc(S(=O)(=O)N3CCOCC3)cc2)n1CC1CCCO1 (stereo unspecified)	1.1
59	CCOc1ccc(C(NC(=O)c2ccco2)c2ccc(OC)c(OC)c2)cc1 (stereo unspecified)	i
60	COC(=O)[C@H](CCSC)NC(=O)NCc1ccc(S(N)(=O)=O)cc1	0.5

# Next part
no.	canonical_smiles	H5N1 antiviral
61	COc1cc(CNn2nnnc2N)ccc1OCc1c(Cl)cccc1Cl	5.7
62	Cc1ccc(C)n1NC(=O)c1cccs1	i
63	CCOCCn1c(COc2ccccc2)nc2ccccc21	i
64	CCCOc1ccc(N2C(=O)CC(N3CCOCC3)C2=O)cc1 (stereo unspecified)	0.6
65	Cc1ccc(-n2c(Cn3cnc4ccccc43)nnc2SCC(=O)O)cc1	0.3
66	O=C(CSc1nc2ccccc2[nH]1)NC(=O)NCc1ccco1	i
67	Cn1c2c(c(=O)n(C)c1=O)C(c1ccc(O)cc1)Nc1ccccc1O2 (stereo unspecified)	0.3
68	COc1cc(C)c(C)cc1S(=O)(=O)N1CCN(Cc2ccccc2)CC1	0.4
69	CCOC(=O)C1=C(C)NC(SCC(N)=O)=C(C#N)C1c1ccncc1 (stereo unspecified)	1.8
70	COC(=O)c1ccc2c(=O)n(CC3CCCO3)c(=S)[nH]c2c1 (stereo unspecified)	0.4
71	COc1ccccc1CNC(=O)c1ccccc1OC	0.2
72	COc1cc(C(c2sc3nc(C)nn3c2O)N2CCN(c3ccccc3)CC2)cc(OC)c1OC (stereo unspecified)	i
73	CC(=O)Nc1c2c(nn1-c1ccc(C)cc1C)CSC2	0.3
74	O=C(O)c1cccc(NC(=O)c2cccc(NC(=O)C3CCCO3)c2)c1 (stereo unspecified)	0.0
75	CCCCCc1ccc(CC(=O)O)cc1	i

# Carrying on:
no.	canonical_smiles	H5N1 antiviral
76	CC(C)C(C(=O)NCc1ccco1)N(C(=O)CNS(=O)(=O)c1ccccc1)C1CCCC1 (stereo unspecified)	0.8
77	O=C1NCC(COCc2ccco2)O1 (stereo unspecified)	0.2
78	CCc1ccc(NC(=O)c2noc3c2CCC3)cc1	i
79	O=C(Nc1ccc2c(c1)nc1n2CCOC1)c1ccccc1	i
80	Cc1csc2nc(CNS(=O)(=O)N(C)C)cn12	1.6
81	Cc1cc(NC(=O)CSc2nnc(-c3c[nH]c4ccccc34)n2-c2ccc(Cl)cc2)no1	0.0
82	CCCC(=O)Nc1ccc2c(c1)nc(CN1CCCC1)n2C	i
83	O=C(Nc1ccc2c(c1)OCO2)c1cccc(S(=O)(=O)N2CCCC2)c1	3.4
84	O=C(c1ccco1)N(CCC(c1ccccc1)c1ccco1)Cc1ccco1 (stereo unspecified)	1.9
85	O=C(O)CSc1nnc(-c2ccc(S(=O)(=O)N3CCCC3)cc2)n1Cc1ccco1	1.3
86	CCOc1ccc(NC2c3ccccc3C(=O)N2Cc2ccc3c(c2)OCO3)cc1 (stereo unspecified)	i
87	O=C(NCc1ccco1)C1CCCN(S(=O)(=O)c2cccc3nonc23)C1 (stereo unspecified)	0.2
88	CCOC(=O)c1c(N2C(=O)C3CC(C)=C(C)CC3C2=O)sc(C)c1C (stereo unspecified)	i
89	CCC1CCCCN1C(=O)COC(=O)c1n[nH]c2ccccc12 (stereo unspecified)	0.6
90	O=C(CC1SC(=NC2CCCCC2)NC1=O)Nc1ccccc1 (stereo unspecified)	0.5

# Later entries
no.	canonical_smiles	H5N1 antiviral
91	CCOC(=O)C1CCN(C(=O)COc2ccc(S(=O)(=O)NC(C)C)cc2)CC1	i
92	Cc1ccc(-n2c(SCC(=O)OC(C)C)nnc2-c2ccco2)cc1	2.4
93	COc1cc(-c2ccc(NC(=O)c3ccc(C)cc3)c(OC)c2)ccc1NC(=O)c1ccc(C)cc1	i
94	COc1ccc(N2C(=O)C3CCCN3C2c2ccccc2Cl)cc1 (stereo unspecified)	i
95	O=C(N/N=C/c1ccc(N2CCOCC2)c([N+](=O)[O-])c1)c1ccc(F)cc1	i
96	C=CCC(CC=C)(C(=O)O)c1ccccc1	i
97	COc1ccc(CC(=O)NCc2ccccn2)cc1OC	i
98	O=C(Nc1nc(-c2cccs2)c(-c2ccccc2)s1)c1ccco1	i
99	CCOc1cccc(OCCCCN2CCOCC2)c1	i
100	Cc1cc(C(=O)N2CCN(S(C)(=O)=O)CC2)sc1-c1ccccc1	i
101	Cc1cc(N/C(=N\S(=O)(=O)c2ccc(Cl)cc2)c2ccc(F)cc2)no1	1.0
102	O=C(Nc1ccccc1Cl)C1CCN(Cc2cnn(-c3ccccc3)c2-n2cccc2)CC1	0.7
103	Cc1ccc(S(=O)(=O)N(CC(=O)NCc2ccncc2)C2CCCCC2)cc1	i
104	Nc1c(NCc2ccccc2)c2ccccc2oc1=O	i
105	CCSc1ccc2nnc(-c3ccc(F)cc3)n2n1	i

# Down the list, from the results shown.
# Compounds 92–103 in H5N1 antiviral read 2.4, i, i, i, i, i, i, i, i, 1.0, 0.7, i

# A different layout for four compounds above.
[101] Cc1cc(N/C(=N\S(=O)(=O)c2ccc(Cl)cc2)c2ccc(F)cc2)no1
  H5N1 antiviral: 1.0
[95] O=C(N/N=C/c1ccc(N2CCOCC2)c([N+](=O)[O-])c1)c1ccc(F)cc1
  H5N1 antiviral: i
[97] COc1ccc(CC(=O)NCc2ccccn2)cc1OC
  H5N1 antiviral: i
[98] O=C(Nc1nc(-c2cccs2)c(-c2ccccc2)s1)c1ccco1
  H5N1 antiviral: i

# Following part:
no.	canonical_smiles	H5N1 antiviral
106	CSC1=NCCN1C(=O)c1ccc(Br)o1	4.6
107	O=C(Cn1[nH]c(=O)c2ccccc2c1=O)OCC(=O)N1CCCc2ccccc21	i
108	CCC(=O)Nc1cc(C(C)C)c(O)cc1C	0.4
109	C/C(=N\N=C(/N)SC1CC(=O)N(c2ccc(Cl)c(Cl)c2)C1=O)c1cccs1 (stereo unspecified)	i
110	Cc1c(C)n(C(=O)CSc2nccn2C)c2ccccc12	1.5
111	Cc1ccc(/C=C(/NC(=O)c2ccccc2)C(=O)NCCc2c[nH]c3ccccc23)o1	i
112	COc1ccc(NC(=O)CN(C)S(=O)(=O)c2ccc3c(c2)CCC(=O)N3)c(OC)c1	1.1
113	Clc1cccc2sc(N3CCCC3)nc12	0.6
114	O=[N+]([O-])c1ccc(Oc2c(F)c(F)nc(N3CCCC3)c2F)cc1	i
115	CN1CCN(C2=NC3(CCCC3)C(C#N)C(=O)N2)CC1 (stereo unspecified)	i
116	CC1CN(Cc2ccccc2Cl)CC(C)O1 (stereo unspecified)	i
117	CCOC(=O)C1=C(C)NC(C)=C(C(=O)OCC)C1C(=O)OCC(=O)N1CCc2ccccc2C1	i
118	O=C(CC1c2ccccc2Oc2ccccc21)NCc1ccco1	1.2
119	CC(C)CNc1c(N)c(=O)oc2ccccc12	0.3
120	O=C(CCS(=O)(=O)c1cccc2nonc12)NC1CCCCCC1	i

# Additional records follow:
no.	canonical_smiles	H5N1 antiviral
121	CCCCN(C(=O)c1cc(OC)c(OC)c(OC)c1)C1=CC2CCC(C1)N2C (stereo unspecified)	0.5
122	Cc1ccccc1OCC(=O)Nc1ccc(N2CCN(C(=O)C(C)C)CC2)c(Cl)c1	3.1
123	COc1ccc(S(=O)(=O)N(C)CC(=O)NCc2cccnc2)cc1Cl	1.3
124	Cn1cccc1/C=N/n1c(-c2ccc(Cl)cc2)n[nH]c1=S	0.9
125	CCCCn1c(SCC(=O)N2CCCc3ccccc32)nc2c1c(=O)n(C)c(=O)n2C	2.5
126	Cc1ccc2ccc(C(Nc3ccccn3)c3ccccc3)c(O)c2n1 (stereo unspecified)	4.8
127	Cn1c(C(=O)OCC(=O)NCc2ccco2)cc2sccc21	0.1
128	COc1ccccc1CNC(=O)COC(=O)c1cnccn1	1.0
129	CC(C)(C)c1[nH]nc2c1C(c1ccc(OC(=O)c3ccco3)cc1)C(C#N)=C(N)O2 (stereo unspecified)	i
130	COc1ccc(OC)c(C(c2nnnn2CCc2ccccc2)N2CCN(c3ccccc3)CC2)c1 (stereo unspecified)	0.6
131	O=c1c2c3c(sc2ncn1Cc1ccc(F)cc1)CCC3	1.0
132	O=C(Nc1c(C(=O)O)[nH]c2ccccc12)NC1CCCCC1	i
133	Nc1cc(CN2C(=O)c3ccccc3C2=O)cc(Cl)c1O	i
134	CC(=O)c1cccc(N=C2NC(=O)CS2)c1	0.3
135	COCCCN(C(=O)Cn1ncc2c(=O)oc3ccc(C)cc3c21)C(C)c1ccncc1 (stereo unspecified)	0.8
